Mtb H37Rv = M. tuberculosis H37Rv growth inhibitors, H37Rv strain (AID 1626) | 220,000 compounds, 0.95% hits | inhibition, % at 10 µM, or IC50 in µM where a hit was titrated | M. tuberculosis H37Rv growth inhibition; higher % means a stronger effect;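 active means confirmed in a dose series; inconclusive means inhibition above 80% but not taken into the dose series; inactive means below 80% or under 30% at every dose of the series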;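 further: bacteria incubated seven days before Alamar blue readout; 0% = bacteria only wells and 100% = bacteria with antibiotic wells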
Mtb betalactam = beta-lactam sensitization of Mtb H37Rv. M. tuberculosis H37Rv growth with meropenem, percent inhibition; hits of this screen are not shown here. 330,000 compounds, 0.27% hits. inhibition, % at 25 µM;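 active means about 74% or more and at least 40 points above the plate without the antibiotic, then above 30% in a dose series; inconclusive means first-round hits that could not be retested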;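 further: growth measured after seven days incubation then overnight dye step; 0% = bacteria only wells and 100% = bacteria with antibiotic; twin plates without the antibiotic show which effects depend on it; some results filed as inactive read as strong as hits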
Arbovirus anti = antivirals against arbovirus infection; 200,000 compounds, 0.37% hits; arbovirus infection cell-based antiviral screen; inhibition, % at 10 µM;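 active means inhibition from about 30%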;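 further: bluetongue infection of BSR cells; cell survival read as ATP light after 72 h; 0% = infected wells without compound and 100% = uninfected wells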
YopH PTP inh = YopH (Yersinia) phosphatase inhibition. fluorescence Ex485/Em525. inhibition, %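 (about 10 µM by stock and volumes)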. 140,000 compounds, 0.16% hits;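 active means inhibition of 50% or more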;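 further: controls were vehicle for no effect and minimum signal wells for full effect; inactives centre near -20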
RecA splice inh = Mtb RecA intein splicing inhibition; cell-free RecA intein splicing, fluorescence; inhibition, %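 (about 9 µM by stock and volumes)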; 290,000 compounds, 0.75% hits; AID 2221; in the data active means inhibition above about 30%; inconclusive means no clear call, values can overlap the other calls;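 further: 0% = vehicle wells and 100% = reference inhibitor control wells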
Target sequence (P9WHJ3 whole entry, looked up, canonical isoform): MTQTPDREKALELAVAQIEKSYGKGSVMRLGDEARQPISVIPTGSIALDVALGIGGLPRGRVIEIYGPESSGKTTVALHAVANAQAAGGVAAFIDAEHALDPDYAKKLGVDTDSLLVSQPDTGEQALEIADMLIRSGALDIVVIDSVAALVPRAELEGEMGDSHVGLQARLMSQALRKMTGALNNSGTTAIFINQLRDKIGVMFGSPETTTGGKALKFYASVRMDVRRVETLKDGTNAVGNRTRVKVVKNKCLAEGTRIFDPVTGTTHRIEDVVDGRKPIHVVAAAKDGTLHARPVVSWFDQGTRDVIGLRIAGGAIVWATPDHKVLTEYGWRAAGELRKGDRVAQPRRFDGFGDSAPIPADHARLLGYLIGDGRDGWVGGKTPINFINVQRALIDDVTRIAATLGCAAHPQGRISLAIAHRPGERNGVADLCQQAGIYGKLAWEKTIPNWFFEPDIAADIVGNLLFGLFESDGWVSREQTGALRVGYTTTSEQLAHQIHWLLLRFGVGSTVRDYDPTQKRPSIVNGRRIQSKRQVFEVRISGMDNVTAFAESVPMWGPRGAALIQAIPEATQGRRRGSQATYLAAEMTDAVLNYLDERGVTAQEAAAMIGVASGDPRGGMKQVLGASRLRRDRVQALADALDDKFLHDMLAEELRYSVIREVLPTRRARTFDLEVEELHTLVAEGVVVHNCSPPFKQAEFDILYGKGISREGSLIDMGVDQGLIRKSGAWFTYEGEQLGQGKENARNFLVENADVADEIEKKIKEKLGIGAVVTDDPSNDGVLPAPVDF
Arbovirus anti repeat = also measured in Arbovirus anti; calls as there; inhibition, %; measured here: 10K subset replicate screen; many hits read low in the repeat;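 first of two repeat runs on a subset; 0% = infected and 100% = uninfected wells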
* hit, by the source's call; ? = inconclusive; nt = not tested or not shown. The list is partial; count on the stated rates, not on these rows.

SMILES | Mtb H37Rv | Mtb betalactam | Arbovirus anti | YopH PTP inh | RecA splice inh | others
Cc1ccc2c(c1)=C(c1sc(N(C)c3ccc(O)cc3)nc1O)C(=O)N=2 | nt | -3 | nt | nt | 2.4
CCOC(=O)c1oc2ccccc2c1NC(=O)CCl | 74% | 96 | nt | nt | 23
COc1cccc(/C=N/Nc2ncnc(Cl)c2N)c1O | 8% | 96 | -25 | 0 | 6.8
COc1cc(S(=O)(=O)N2CCOCC2)ccc1NC(=O)COC(=O)c1ccccn1 | 0% | 3 | 9 | -9 | 0.6
CC1SC(=NC(=O)C(C)N2C(=O)c3ccccc3C2=O)NC1=O (stereo not drawn) | -17% | -2 | 0 | -11 | -0.9
Cc1ccc([N+](=O)[O-])c(C(=O)Nc2cccnc2Cl)c1 | -1% | 5 | 11 | nt | 1.9
Cc1ccc(N(CC(=O)NCC2CCCO2)C(=O)CCC(=O)Nc2nccs2)cc1 (stereo not drawn) | nt | 0 | nt | nt | -2.0
Cc1cccc(C)c1OCCSc1n[nH]c(N)n1 | 5% | -6 | 0 | 2 | -3.5
Cc1ccccc1NC(=S)NCCc1ccccn1 | 1% | 7 | 2 | -39 | 0.2
Clc1ccc(CSc2nncn2-c2ccccn2)cc1 | -1% | 2 | 2 | -43 | 2.1
CCn1c(CC(=O)Nc2cccc(OC)c2)nnc1SCC(=O)N1CCN(c2ccccc2)CC1 | -2% | -5 | -3 | -33 | 0.7
COC(=O)CCN(C(=O)c1ccc(OC(C)=O)cc1)c1ccccn1 | -4% | 14 | 2 | -11 | 1.1
CCCC1c2ccc(C)n2CCN1C(=O)Nc1ccc(F)cc1 (stereo not drawn) | -9% | -11 | 0 | -6 | -1.2
CC1CCN(C(=O)COc2cccc3c2CCN(Cc2ccccc2)C3=O)CC1 | nt | 1 | -31 | nt | -3.7
CC(C)(C)c1ccc(CSc2nc(N)cc(=O)[nH]2)cc1 | nt | 4 | nt | nt | 1.1
O=C(c1ccco1)N1CCCC(Nc2ccc3c(c2)OCCO3)C1 (stereo not drawn) | nt | -13 | nt | nt | 2.3
Nn1c(SCC(=O)Nc2nccs2)nnc1C1CC1 | nt | -9 | nt | nt | -1.4
CCOc1ccc(S(=O)(=O)n2cc(-c3ccc(F)cc3)c(N)n2)cc1 | -3% | -1 | -7 | -48 | -0.5
CCOc1ccc(CN2CCN(Cc3cnc(-c4ccccc4)s3)CC2CCO)cc1 (stereo not drawn) | 52% | 99 | -21 | nt | 6.5
O=C(OC(C(=O)NCC1CCCO1)c1ccccn1)c1cccs1 (stereo not drawn) | -6% | 4 | 2 | -7 | -1.4
CCOc1ccc2nc(NC(=O)c3ccccn3)sc2c1 | 1.4µM* | 96 | nt | nt | 2.0
CCc1ccc(NC(=O)CSc2nc(=O)n(CCCN3CCOCC3)c3c2CCC3)cc1 | nt | -10 | nt | nt | 0.3
Cc1ncc([N+](=O)[O-])n1CCOC(=O)C12CC3CC(CC(C3)C1)C2 | -12% | -6 | 3 | nt | 0.3
COc1ccc(F)cc1C(=O)C1CCCN(C(=O)c2ccc(C(C)=O)s2)C1 (stereo not drawn) | nt | 4 | nt | nt | 6.0
O=C1/C(=C/c2ccccc2)CCC1C1CCCC1 (stereo not drawn) | 3% | 6 | 9 | -39 | 3.5
O=C(NCc1ccccn1)c1ccc(Br)s1 | 0% | -4 | -1 | -14 | 2.4
CC1CN(Cc2nc3c(c(=O)n(C)c(=O)n3C)n2Cc2ccccc2)CC(C)O1 (stereo not drawn) | 0% | -1 | 2 | -52 | -4.4 | Arbovirus anti repeat=-1
O=C(CSc1nc(N2CCOCC2)nc(N2CCOCC2)n1)Nc1ccccc1F | nt | -6 | nt | nt | -4.9
Cc1ccc(S(=O)(=O)Nc2cc(C(=O)NCCN(C)C)ccc2N2CCCC2)cc1 | nt | 3 | nt | nt | 2.1
COC(=O)c1ccc(NC(=O)C23CC4CC(C2)CC(n2cnc(Cl)n2)(C4)C3)cc1 | -10% | -3 | -1 | 0 | 1.9
O=C(COC(=O)c1ccc[nH]c1=O)NC1CCCCCC1 | 4% | 2 | 1 | nt | -15
O=C(NCc1ccccn1)C(=O)NN=C1CCCCCCCCCCC1 | -8% | -1 | 3 | nt | -4.1
CSCCC(NC(=O)c1ccccc1Br)C(=O)NCCCn1nc(C)cc1C (stereo not drawn) | nt | 1 | nt | nt | -0.1
Cc1ccc(C2=NS(=O)(=O)N(C)C(C(=O)Nc3cc(C)n(CC(=O)N4CCC(C)CC4)n3)=C2)cc1 | nt | -2 | nt | nt | -0.2
CCOC(=O)Cc1csc(NC(=O)CS(=O)(=O)Cc2ccccc2)n1 | 0% | 4 | 4 | -16 | 1.5
C=CCOC(=O)C(C#N)c1nc2ccccc2nc1N1CCCC1 (stereo not drawn) | 8% | 45 | 3 | -18 | 1.5
CCSc1nnc(NC(=O)C2CC2c2ccccc2)s1 (stereo not drawn) | 0% | -4 | -1 | -9 | 0.0
N#Cc1c(-c2ccco2)nc(SCC(=O)Nc2ccc(S(N)(=O)=O)cc2)[nH]c1=O | nt | -8 | 32* | -4 | -0.6
COc1ccc(C(=O)/C=C/c2ccc(N3CCCCC3)c([N+](=O)[O-])c2)cc1 | nt | 97 | 4 | -20 | 7.8
COCCN=C1Sc2nc3cc4c(cc3cc2CN1CC1CCCO1)OCO4 (stereo not drawn) | 2% | 2 | -7 | nt | -2.9

Entries from the list above with a thiophene ring, fused or not (three):
SMILES | Mtb H37Rv | Mtb betalactam | Arbovirus anti | YopH PTP inh | RecA splice inh | others
O=C(OC(C(=O)NCC1CCCO1)c1ccccn1)c1cccs1 (stereo not drawn) | -6% | 4 | 2 | -7 | -1.4
COc1ccc(F)cc1C(=O)C1CCCN(C(=O)c2ccc(C(C)=O)s2)C1 (stereo not drawn) | nt | 4 | nt | nt | 6.0
O=C(NCc1ccccn1)c1ccc(Br)s1 | 0% | -4 | -1 | -14 | 2.4

The results go on:
SMILES | Mtb H37Rv | Mtb betalactam | Arbovirus anti | YopH PTP inh | RecA splice inh | others
FCCN(CCF)c1cccc(Cl)c1 | -4% | 2 | nt | nt | -1.0
CC1CC(C)(C)Nc2ccc(OC(=O)c3ccco3)cc21 (stereo not drawn) | 16µM* | 99 | -27 | -38 | 6.0 | Arbovirus anti repeat=-28
Cc1cccc(-n2c(O)c(/C=C3/C(c4ccccc4)=Nc4ccccc43)c(=O)[nH]c2=O)c1 | -1% | 6 | nt | nt | 2.7
O=C(N/N=C/c1ccc(-c2cccc([N+](=O)[O-])c2)o1)[C@H]1C[C@@H]1c1ccccc1 | 5% | 14 | -14 | -3 | 0.6
CC1(C(=O)Nc2nnc(C(C)(C)C)s2)Cc2ccccc2C(=O)O1 (stereo not drawn) | -6% | -12 | 6 | -51 | 0.3
Cc1oc(S(=O)(=O)N2CCCCC2)cc1NC(=O)Nc1ccccc1 | -4% | -5 | nt | nt | 0.4
CCOc1ccc(NC(=O)c2ccc(NC(=O)CSc3nc4ccccc4c(=O)[nH]3)cc2)cc1 | 8% | -6 | -3 | nt | -3.8
CC(C)OC(=O)CSc1nc(Cc2cccs2)nc2ccccc12 | -10% | 27 | 1 | nt | 11
CCOc1ccc2nc(NC(=O)c3ccc(C)o3)sc2c1 | nt | 7 | nt | nt | 0.2
CC(C)CCN1C(=O)c2cccc3c(N)ccc(c23)C1=O | nt | -6 | nt | nt | -405
Cc1ccc(-c2nnc(OCc3nc4ccccc4n3C)c3ccccc23)cc1 | nt | -8 | nt | nt | -5.1
COc1ccc(CCN2C(=O)CC(N3CCN(C/C=C/c4ccccc4)CC3)C2=O)cc1OC (stereo not drawn) | -6% | 14 | nt | nt | 0.4
CC1CCC(NC(=O)CCNC(=O)c2ccc(Br)cc2)CC1 (stereo not drawn) | nt | 0 | nt | nt | -0.3
COc1c(F)c(F)c(C(=O)O)c(Nc2cccc(C)c2)c1F | 1% | -5 | 23 | nt | -2.3
C=CCNC(=O)c1onc(CSc2ccccn2)c1C(=O)NCC=C | -5% | -2 | nt | nt | 0.8
CCC(=O)NC(c1ccc(Cl)cc1Cl)c1ccc2cccnc2c1O (stereo not drawn) | nt | 25 | nt | nt | -3.0
CC1(C)CC(=O)c2cnc3c(C#N)cnn3c2C1 | 2% | 1 | 5 | nt | -1.0
CC(=O)NC1C(Oc2ccc(C)cc2)OC2COC(c3ccco3)OC2C1O (stereo not drawn) | 2% | 3 | -2 | -16 | 0.3
Cc1cc(NC(=O)CSc2nnc(CNC(=O)c3ccc(F)cc3)o2)no1 | nt | -9 | nt | nt | -0.3
CCOc1ccc(S(=O)(=O)NCc2ccc(C)cc2)c2cccnc12 | -5% | 1 | 3 | -27 | -1.7
O=C(COc1ccc(N2CC(C(=O)O)CC2=O)cc1)Nc1cccc(C(F)(F)F)c1 (stereo not drawn) | -1% | -3 | -3 | -19 | -6.6
Cc1c(OCC(=O)N2CCC(C(=O)NCCCC(=O)O)CC2)ccc2c1oc(=O)c1ccccc12 | nt | 0 | nt | nt | -2.0
Cc1ccc(NC(=O)COC(=O)c2cc(Cl)ccc2Cl)c(Br)c1 | ? | 98 | -6 | -21 | 1.5
COC(=O)c1ccc(N=Cc2c(-c3ccccc3)[nH][nH]c2=O)cc1 | 93% | 90 | -1 | nt | 3.4
COc1ccc(Nc2nc(C)nc3c2oc2ccccc23)c(OC)c1 | nt | 4 | nt | nt | 0.6
CCc1sc(C(C2C(=O)CC(C)(C)CC2=O)C2C(=O)CC(C)(C)CC2=O)cc1[N+](=O)[O-] | -5% | 2 | -5 | nt | nt
CCc1cc2c(=O)c(-c3ccc4c(c3)OCO4)coc2c(CN(C)C)c1O | nt | 3 | nt | nt | -2.2
CCNc1nc(NCC)n2c(SCC(=O)Nc3cc(Cl)ccc3OC)nnc2n1 | nt | -4 | nt | nt | -2.0
Cc1oc2cc(O)cc(C)c2c(=O)c1-c1cnn(-c2ccccc2)c1 | -2% | -2 | 13 | 4 | 5.9
S=C1Cc2ccccc2N1 | 7% | nt | nt | nt | 88*
Clc1ccc(C2CC(c3cccs3)n3ncnc3N2)c(Cl)c1 (stereo not drawn) | nt | 20 | 9 | nt | 1.3 | Arbovirus anti repeat=5
Cc1cccc(NC(=O)c2c(O)c3cccc4c3n(c2=O)CCC4)n1 | -9% | nt | -1 | -48 | nt
COc1cc(/C=C/c2ccc3cccc(O)c3n2)c(Br)cc1O | nt | 84 | nt | nt | 4.6
Cn1c(Cn2c(=O)sc3ccccc32)nnc1SCC(=O)Nc1ccc(Cl)cc1 | 7% | 0 | -5 | -45 | nt | Arbovirus anti repeat=-1
COc1ccc(-n2c(SCC(=O)N3CCCCC3C)nnc2-c2cccnc2)cc1 (stereo not drawn) | 0% | -6 | 2 | 2 | 0.1
CC(Oc1cccc(Cl)c1)C(=O)Nc1cc(S(=O)(=O)N2CCOCC2)ccc1N1CCCC1 (stereo not drawn) | nt | 2 | nt | nt | 1.2
COC(=O)CN1C(CN2CCOCC2)=Nc2ccc(Br)cc2C1c1ccccc1 (stereo not drawn) | -1% | 89 | nt | nt | 5.9
O=C(O)COc1ccc(S(=O)(=O)c2ccc(OCC(=O)O)cc2)cc1 | nt | -5 | 6 | -48 | -1.7
Cc1nn(C)c(C(=O)NNC(=S)NC2CCCCC2)c1Cl | -3% | 1 | 13 | -27 | 3.9
O=C(C1CC1)N1CCc2cc(S(=O)(=O)N3CCCc4ccccc43)ccc21 | 3% | -3 | 1 | -39 | -1.8
O=C(C1CCN(c2nnc(-n3cccc3)s2)CC1)N1CCc2ccccc2C1 | 0.7µM* | 100 | 2 | -29 | 0.6 | Arbovirus anti repeat=3
COCCOCC(=O)Nc1ccc(S(=O)(=O)Nc2cc(C)nc(C)n2)cc1 | nt | 2 | nt | nt | -4.4
CCOc1ccc(NC(=O)CS(=O)(=O)c2cn(CC)c3ccccc23)cc1 | -2% | -2 | -3 | -44 | 0.2

In the list so far, five contain a nitro group on carbon:
SMILES | Mtb H37Rv | Mtb betalactam | Arbovirus anti | YopH PTP inh | RecA splice inh | others
Cc1ccc([N+](=O)[O-])c(C(=O)Nc2cccnc2Cl)c1 | -1% | 5 | 11 | nt | 1.9
Cc1ncc([N+](=O)[O-])n1CCOC(=O)C12CC3CC(CC(C3)C1)C2 | -12% | -6 | 3 | nt | 0.3
COc1ccc(C(=O)/C=C/c2ccc(N3CCCCC3)c([N+](=O)[O-])c2)cc1 | nt | 97 | 4 | -20 | 7.8
O=C(N/N=C/c1ccc(-c2cccc([N+](=O)[O-])c2)o1)[C@H]1C[C@@H]1c1ccccc1 | 5% | 14 | -14 | -3 | 0.6
CCc1sc(C(C2C(=O)CC(C)(C)CC2=O)C2C(=O)CC(C)(C)CC2=O)cc1[N+](=O)[O-] | -5% | 2 | -5 | nt | nt
